VDR inhibitor – vitamin D3 receptor (human) inhibition; 0.93% of 400,000 active; Potency, µM, inactives show max response, negative = inhibition, hits mostly inhibitors; P11473; VDR-SRC2-3 peptide fluorescence polarization, 2 h; active = well fitted inhibition curve with a large enough effect; inconclusive = small, poorly fitted or top-dose-only effect, or another doubt; inactive = no such curve, though single readings can be large or run the other way; also: series mostly up to about 120 µM
Target sequence (P11473 whole entry, looked up): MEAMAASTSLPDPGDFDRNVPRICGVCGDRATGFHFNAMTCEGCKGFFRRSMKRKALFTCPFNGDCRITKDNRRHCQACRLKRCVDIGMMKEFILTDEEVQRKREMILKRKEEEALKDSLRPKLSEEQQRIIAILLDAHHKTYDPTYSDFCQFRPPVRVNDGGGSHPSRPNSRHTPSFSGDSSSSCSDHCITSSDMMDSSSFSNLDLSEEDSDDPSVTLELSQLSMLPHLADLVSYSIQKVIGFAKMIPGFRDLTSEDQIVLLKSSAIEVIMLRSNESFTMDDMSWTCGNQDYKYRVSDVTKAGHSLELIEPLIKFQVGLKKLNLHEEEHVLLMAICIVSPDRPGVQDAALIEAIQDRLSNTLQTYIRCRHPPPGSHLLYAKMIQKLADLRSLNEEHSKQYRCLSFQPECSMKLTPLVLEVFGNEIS
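VDR–SRC2-3 interaction, FP format. Cmpds 23 nl via pintool, brief spin, 2 h ambient incubation.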
Starred values were filed as active, the others as inactive; ? = inconclusive; & = joins results of further samples. % is scaled to controls: 0 for no effect and ±100 for the full control effect; potency is read from the fitted curve at half-maximal effect.

SMILES	VDR inhibitor
COCCN1C(=O)N(c2cccc(OC)c2)C(=O)C1CC(=O)Nc1ccccc1 (configuration not stated)	-5%
COc1cc(C(=O)NC(C)CCn2cccn2)ccc1OC1CCN(C(C)=O)CC1 (configuration not stated)	-6%
COc1ccc(OC)c(-c2csc(NC(=O)COC(=O)C3(C)CC3(Cl)Cl)n2)c1 (configuration not stated)	8%
CCN(C(=O)COC(=O)C12CC3CC(CC(O)(C3)C1)C2)c1c(N)n(Cc2ccccc2)c(=O)[nH]c1=O	-15%
CS(=O)(=O)N1CCc2cc(C(=O)Nc3ccccc3Br)ccc21	-7%
COc1ccc(/C=N/NC(=O)c2[nH]c(C)c(C(=O)N/N=C/c3ccc(OC)cc3)c2C)cc1	-16%
CCC(=O)N1CCc2cc(S(=O)(=O)CCC(=O)N3CCN(c4ccccc4Cl)CC3)ccc21	-17%
CC1CCC(C(O)(C(=O)O)C2CCCCC2)CC1C (configuration not stated)	-24%
O=C(NCCCO)C(=O)NCC(c1ccc2c(c1)OCO2)N1CCN(c2ccc(F)cc2)CC1 (configuration not stated)	-11%
COc1ccccc1OCC(=O)Nc1ccc(S(=O)(=O)Nc2cc(C)nc(C)n2)cc1	-2%
Cn1cc(CN(C(=O)Nc2ccccc2)C2CCCCC2)c2ccccc21	0%
Cc1ccc(-c2nnc3ccc(SCC(=O)Nc4cc(C)on4)nn23)cc1	-1%
CC1(C)NC(=O)N(CC(O)Cn2c3ccccc3c3ccccc32)C1=O (configuration not stated)	2%
Cn1c(SCC(=O)c2c(N)n(C)c(=O)n(C)c2=O)nnc1-c1ccccc1F	-6%
COc1cc(OC)nc(Oc2cccc(Cl)c2C)n1	4%
CC12CCC(C(=O)NC3CCCCC3)([C@H](Br)C1=O)C2(C)C (some centres not stated)	-18%
CC(C)CCNC(=O)CN(C(=O)CCC(=O)Nc1ccccn1)c1ccc(F)c(Cl)c1	21%
CCc1ccc(-n2nc(C)c3c(C(=O)Nc4cc(C)c(Cl)cc4OC)cc(C)nc32)cc1	13%
CCOC(=O)[C@@H]1[C@H]2COc3ccc(Br)cc3[C@@H]2N2C(=O)N(c3cccc(F)c3)C(=O)[C@]12C	13%
C=CCOc1ccc(CNn2c(C)n[nH]c2=S)cc1OC	22%
CCc1nn(CC(=O)NCc2cccnc2)c(=O)c2cc3occc3n12	-11%
Cn1nc(C(=O)N2CCN(c3ccc(F)cc3)CC2)c2c1-c1ccccc1SC2	-8%
CS(=O)(=O)N1CCC[C@@]2(CCN(c3ccccc3)C2)C1	?
CCCS(=O)(=O)c1c(S(=O)(=O)CCC)c2cc(-c3ccncc3)ccn2c1C(=O)OC	-20%
O=C(N/N=C/c1cccnc1)C(=O)N1CCCCCC1	-14%
C/C(N)=C(/C#N)C(=O)CSc1nc2cc(Cl)ccc2c(=O)n1-c1ccc(C)cc1	-5%
CCN(CC)C(CNC(=O)CSc1nnnn1-c1cccc(F)c1)c1ccco1 (configuration not stated)	-3%
O=C(Nc1cccc(Cl)c1)c1ccc2c(c1)OCCO2	-17%
CCSc1ccccc1C(=O)NCc1ccc(OC)cc1	7%
Cc1cc(C(=O)COc2cc(F)ccc2[N+](=O)[O-])c(C)n1CC1CCCO1 (configuration not stated)	23%
CN(CC(=O)Nc1ccc(Cl)cc1)C1CCCCC1	1%
CC(C)Oc1ccccc1C1(c2ccccc2)NC(=O)NC1=O (configuration not stated)	-4%
CCCS(=O)(=O)N1CC(=O)N(c2ccccc2F)C(C)(C(=O)NC2CCCCCC2)C1 (configuration not stated)	8%
CCOc1ccc(-c2cn(S(=O)(=O)c3cccc4nsnc34)nc2N)cc1	9%
CCOC(=O)CCN1C(=O)c2ccccc2Sc2ncccc21	-14%
COC(=O)c1cc(OC)c(OC)cc1NC(=S)N1CCN(c2ccccn2)CC1	-1%

Reformatted with the structure last: entries from further up.
VDR inhibitor | Molecule
-1% | Cc1ccc(-c2nnc3ccc(SCC(=O)Nc4cc(C)on4)nn23)cc1
2% | CC1(C)NC(=O)N(CC(O)Cn2c3ccccc3c3ccccc32)C1=O (configuration not stated)
-6% | Cn1c(SCC(=O)c2c(N)n(C)c(=O)n(C)c2=O)nnc1-c1ccccc1F
4% | COc1cc(OC)nc(Oc2cccc(Cl)c2C)n1
-18% | CC12CCC(C(=O)NC3CCCCC3)([C@H](Br)C1=O)C2(C)C (some centres not stated)
21% | CC(C)CCNC(=O)CN(C(=O)CCC(=O)Nc1ccccn1)c1ccc(F)c(Cl)c1
13% | CCc1ccc(-n2nc(C)c3c(C(=O)Nc4cc(C)c(Cl)cc4OC)cc(C)nc32)cc1
13% | CCOC(=O)[C@@H]1[C@H]2COc3ccc(Br)cc3[C@@H]2N2C(=O)N(c3cccc(F)c3)C(=O)[C@]12C
22% | C=CCOc1ccc(CNn2c(C)n[nH]c2=S)cc1OC
-11% | CCc1nn(CC(=O)NCc2cccnc2)c(=O)c2cc3occc3n12
-8% | Cn1nc(C(=O)N2CCN(c3ccc(F)cc3)CC2)c2c1-c1ccccc1SC2
? | CS(=O)(=O)N1CCC[C@@]2(CCN(c3ccccc3)C2)C1
-20% | CCCS(=O)(=O)c1c(S(=O)(=O)CCC)c2cc(-c3ccncc3)ccn2c1C(=O)OC
-14% | O=C(N/N=C/c1cccnc1)C(=O)N1CCCCCC1
-5% | C/C(N)=C(/C#N)C(=O)CSc1nc2cc(Cl)ccc2c(=O)n1-c1ccc(C)cc1
-3% | CCN(CC)C(CNC(=O)CSc1nnnn1-c1cccc(F)c1)c1ccco1 (configuration not stated)
-17% | O=C(Nc1cccc(Cl)c1)c1ccc2c(c1)OCCO2
7% | CCSc1ccccc1C(=O)NCc1ccc(OC)cc1
23% | Cc1cc(C(=O)COc2cc(F)ccc2[N+](=O)[O-])c(C)n1CC1CCCO1 (configuration not stated)
1% | CN(CC(=O)Nc1ccc(Cl)cc1)C1CCCCC1
-4% | CC(C)Oc1ccccc1C1(c2ccccc2)NC(=O)NC1=O (configuration not stated)
8% | CCCS(=O)(=O)N1CC(=O)N(c2ccccc2F)C(C)(C(=O)NC2CCCCCC2)C1 (configuration not stated)

Further results
SMILES	VDR inhibitor
Cc1cccc(C)c1NC(=O)C1CCCN1C(=O)Nc1cccc(F)c1 (configuration not stated)	-11%
CCOC(=O)c1c(C)oc2nc(C)nc(NCC3CCN(Cc4ccc(C)cc4)CC3)c12	22%
Cc1ccc(S(=O)(=O)N2CCN(C(=O)c3cccs3)CC2)cc1	-7%
CCOc1ccc(NC(=O)CN2CCN(CC(=O)Nc3ccc(F)c(F)c3)CC2)cc1	-14%
COCCNC(=O)CN(C(=O)CCC(=O)Nc1ccccn1)c1ccc(C)c(C)c1	20%
COc1ccc(-n2c(SC(CN3CCCCC3)CN3CCCC3=O)nc3ccccc3c2=O)cc1 (configuration not stated)	?
COC(=O)c1c[nH]c2c1-c1cc(C(=O)OCc3ccccc3)n(S(=O)(=O)c3ccc(C)cc3)c1C(=O)C2=O	-22%
COC(=O)c1sccc1NC(=O)Nc1cc(OC)ccc1OC	14%
O=C(NCc1ccc2c(c1)OCO2)Nc1ccc(F)cc1	25%
N#CCCN(C(=O)Nc1ccc(Cl)c(Cl)c1)c1ccccc1	4%
Cc1ccc2[nH]c(C(=O)O)c(NC(=O)[C@@H]3C[C@@H]3c3ccccc3)c2c1	-8%
O=C(Nc1cccc(S(=O)(=O)N2CCCCC2)c1)C1CC1	-3%
Cc1cc(C)n(-c2ccc(C(=O)Nc3cccnc3)cc2)n1	-3%
COCC(C)NC(=O)c1ccccc1OC(C)=O (configuration not stated)	10%
O=C(COC(=O)c1cc(Br)ccc1Cl)NC1CC1	-10%
C=CCn1c(-c2ccccc2[N+](=O)[O-])n[nH]c1=S	-1%
Cc1cccc(CNc2ncnc3ccc(-c4cccc(C#N)c4)cc23)c1	0%
COc1ccccc1N1CCN(Cc2cc(=O)c(OCC#N)co2)CC1	-9%
CC1CCCN(S(=O)(=O)c2cc(Cl)ccc2Cl)C1 (configuration not stated)	0%
CCn1c(SCc2cccc(C(=O)O)c2)nnc1-c1ccccc1	-15%
CCc1ccc(S(=O)(=O)Nc2cccc(-c3ccc4nnc(C)n4n3)c2)s1	-9%
O=C(O)CNC(=O)/C(=C/c1cccc([N+](=O)[O-])c1)NC(=O)c1ccco1	-16%
COC(=O)c1ccc(C(=O)OC)c(NC(=O)CSc2nnc(-c3ccccc3Cl)o2)c1	-6%
C/C(=N\NC(=O)c1nnn(-c2nonc2N)c1CSc1ccccc1)c1ccco1	-9%
O=C(OCCCN1CCCC1)C1(c2ccccc2)CCCC1	2%
COc1cc(C)c(C(C)C)cc1S(=O)(=O)NCCCn1ccnc1	5%
CCc1ccccc1N(CC(=O)N1CCCCCC1)S(C)(=O)=O	9%
O=C(c1cc(Cl)ccc1F)N1CCCC(Nc2ccc3c(c2)OCCO3)C1 (configuration not stated)	-10%
CCOc1cccc(C2/C(=C(/O)c3ccc4c(c3)CC(C)O4)C(=O)C(=O)N2Cc2ccncc2)c1 (configuration not stated)	-18%
O=C(N/N=C/c1ccc2c(c1)OCO2)C(=O)Nc1ccccc1	-3%
COc1ccc(OC)c(S(=O)(=O)N(C)CC(=O)N2CCc3ccccc3C2)c1	-2%
Cc1ccc(CNC(=O)CSc2nc(C)cc(C)c2C#N)cc1	15%
N#CCCn1c2ccccc2c2nc3ccccc3nc21	18%
COc1cccc(OCc2nc3ccccc3n2Cc2ccccc2C)c1	2%
N#Cc1c(SCC(=O)N2CCCCC2)nsc1SCC(=O)N1CCCCC1	7%
Cc1cccc(N2CCN(C(=O)c3ccc4c(c3)N(Cc3cccc(Cl)c3)C(=O)c3ccccc3S4(=O)=O)CC2)c1C	9%
Cc1ccc2c(c1)C(c1ccc(F)cc1)N(C(=O)C(C)C)CC(=O)N2 (configuration not stated)	-17%
CCCC(=O)O[C@]1(C(=O)CO)CCC2[C@@H]3CCC4=CC(=O)CC[C@]4(C)C3C(O)C[C@]21C (some centres not stated)	-5%
Oc1ccccc1CN1CCCC(N2CCN(c3cccc(C(F)(F)F)c3)CC2)C1 (configuration not stated)	-20%
CCOc1cc(C2NC(=O)c3c(sc4c3CCN(C)C4)N2)ccc1OC(=O)c1ccccc1Cl (configuration not stated)	14%
O=C(COC(=O)CCc1ccccc1)NCc1ccc2c(c1)OCO2	6%
COc1ccc(Cn2c(/C=C/c3ccccc3)nc3ccccc32)cc1	-13%
Cc1ccc(C(=O)NCC(=O)OCC(=O)c2ccc3ccccc3c2)cc1	-24%
CC(C)NC(=O)CC1C(=O)N(Cc2ccccc2)C(C)c2nc3ccccc3n21 (configuration not stated)	2%
CCn1c(SCC(=O)NC2CCCCC2)nc2c(c1=O)SC(C)C2 (configuration not stated)	-23%
COc1ccc(/C=N/NC(=O)CC(=O)N/N=C/c2ccc(OC)cc2)cc1	-4%
CCn1nc(NC(=O)c2ccccn2)c2cc3cccc(C)c3nc21	-8%
COc1ccc(N(C(C)C(=O)NCc2ccco2)S(C)(=O)=O)cc1 (configuration not stated)	13%
CCOc1ccc2nc(NC(=O)C3CCCN(S(=O)(=O)c4cccc5nonc45)C3)sc2c1 (configuration not stated)	15%
CCOc1ccccc1NC(=O)N1CCCC1C(=O)Nc1nnc(CC)s1 (configuration not stated)	3%
OCCN1CCN(CCO)C1=S	-6%
COc1cccc(NC2=NCC(=O)N2Cc2cccs2)c1	-7%
CC[C@]12c3[nH]c4ccc(Cl)cc4c3CCN1C(=O)[C@@H](CC(=O)NCCN1CCOCC1)C[C@@H]2C(=O)N1CCN(C(=O)c2ccco2)CC1	-25%
COc1ccccc1-n1cc(-c2ccc(C)cc2)nc1S(=O)(=O)CC(=O)Nc1ccccc1C(F)(F)F	-7%
C=CCn1c(-c2cccc(OC)c2)nc2nc3ccccc3nc21	-6%
COc1cc(Cl)c(C)cc1NC(=O)CSc1ncc(S(=O)(=O)c2ccc(C(C)(C)C)cc2)c(=O)[nH]1	-14%
CCn1c(SCC(=O)N2CCOCC2)nnc1-c1ccco1	-9%
COc1ccc(N2CC(NC(=O)c3ccc(Br)o3)CC2=O)cc1 (configuration not stated)	3%
CCCOc1ccc(CNC(=O)C2CCN(C(=O)N3CCOc4ccccc43)CC2)cc1	-16%
COc1ccc(-c2nc3n(n2)C(c2ccc(OC)cc2)C(C(=O)Nc2cccnc2)=C(C)N3)cc1 (configuration not stated)	1%
Next structures
SMILES	VDR inhibitor
CCC(=O)N1CCN(c2nc(-c3ccc(Cl)cc3)cs2)CC1	1%
COc1ccc(N(C)C(=O)C2CCN(S(=O)(=O)c3cccc4nsnc34)CC2)cc1	-9%
CN1CCN(c2cc(=O)n(C3CCCCC3)c(=O)[nH]2)CC1	-3%
Cc1ccc(SCc2cc(=O)n3[nH]cnc3n2)cc1	-4%
CC(=O)c1cccc(NC(=O)Nc2ccc3c(c2)N(C)C(=O)CS3)c1	3%
Nc1c(-c2ccccc2)c(CSc2nc3ccccc3[nH]2)nn1-c1ccc(Cl)cc1	7%
CCOc1ccc(NS(=O)(=O)c2ccc3[nH]c(=O)cc(C(=O)O)c3c2)cc1	-8%
COC(=O)c1cc(S(=O)(=O)NCC2CCN(Cc3ccc(F)cc3)CC2)c[nH]1	-11%&-8%
CCN1C(=O)CC(C(=O)Nc2ccc(F)cc2)SC1=Nc1cccc(OC)c1 (configuration not stated)	-5%
Fc1ccc(N2C(=S)SC(=Nc3ccccc3)C2=Nc2ccccc2)cc1	-11%
Cn1c(-c2ccccc2)c(C(=O)CC#N)c2ccccc21	-14%
CCOC(=O)C1CCN(C(=O)C2CCCCC2)CC1	-7%
Cc1ccc(-n2[nH]c(C)c(C=NCc3ccncc3)c2=O)cc1	1%
O=C(Nc1cccc(C(F)(F)F)c1)c1cccnn1	18%
Cc1nc(CCNC(=O)CC2C(=O)NCCN2Cc2ccccc2)nc2c1CCC2 (configuration not stated)	-11%
COc1cccc(CNC(=O)C2CCN(S(=O)(=O)c3c(C)noc3/C=C/c3cccs3)CC2)c1	-7%
CCC(=O)N1c2ccccc2CC1C(=O)NCCc1cc(OC)c(OC)c(OC)c1 (configuration not stated)	6%
Cc1cccc(C(=O)OCC(=O)NN2C(=O)NC3(CCC(C)CC3)C2=O)c1O (configuration not stated)	-12%

A portion of the library, so the mix of outcomes need not match the whole.
